YopH PTP inh = inhibitors of Yersinia enterocolitica YopH tyrosine phosphatase; fluorescence Ex485/Em525; inhibition, %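 (about 10 µM by stock and volumes)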; 0.16% of 140,000 active; AID 898;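 active means inhibition of 50% or more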;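 further: controls were vehicle for no effect and minimum signal wells for full effect; inactives centre near -20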
Mtb H37Rv = M. tuberculosis H37Rv growth inhibitors, H37Rv strain (AID 1626); M. tuberculosis H37Rv growth inhibition; higher % means a stronger effect; one-dose inhibition, % at 10 µM; IC50 in µM for titrated hits; 0.95% of 220,000 active;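 active means confirmed in a dose series; inconclusive means inhibition above 80% but not taken into the dose series; inactive means below 80% or under 30% at every dose of the series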;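 further: bacteria incubated seven days before Alamar blue readout; 0% = bacteria only wells and 100% = bacteria with antibiotic wells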
RecA splice inh = Mtb RecA intein splicing inhibition. cell-free RecA intein splicing, fluorescence. AID 2221. inhibition, %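 (about 9 µM by stock and volumes)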. 0.75% of 290,000 active; in the data active means inhibition above about 30%; inconclusive means no clear call, values can overlap the other calls;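 further: 0% = vehicle wells and 100% = reference inhibitor control wells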
Target sequence (P9WHJ3 whole entry, looked up, canonical isoform): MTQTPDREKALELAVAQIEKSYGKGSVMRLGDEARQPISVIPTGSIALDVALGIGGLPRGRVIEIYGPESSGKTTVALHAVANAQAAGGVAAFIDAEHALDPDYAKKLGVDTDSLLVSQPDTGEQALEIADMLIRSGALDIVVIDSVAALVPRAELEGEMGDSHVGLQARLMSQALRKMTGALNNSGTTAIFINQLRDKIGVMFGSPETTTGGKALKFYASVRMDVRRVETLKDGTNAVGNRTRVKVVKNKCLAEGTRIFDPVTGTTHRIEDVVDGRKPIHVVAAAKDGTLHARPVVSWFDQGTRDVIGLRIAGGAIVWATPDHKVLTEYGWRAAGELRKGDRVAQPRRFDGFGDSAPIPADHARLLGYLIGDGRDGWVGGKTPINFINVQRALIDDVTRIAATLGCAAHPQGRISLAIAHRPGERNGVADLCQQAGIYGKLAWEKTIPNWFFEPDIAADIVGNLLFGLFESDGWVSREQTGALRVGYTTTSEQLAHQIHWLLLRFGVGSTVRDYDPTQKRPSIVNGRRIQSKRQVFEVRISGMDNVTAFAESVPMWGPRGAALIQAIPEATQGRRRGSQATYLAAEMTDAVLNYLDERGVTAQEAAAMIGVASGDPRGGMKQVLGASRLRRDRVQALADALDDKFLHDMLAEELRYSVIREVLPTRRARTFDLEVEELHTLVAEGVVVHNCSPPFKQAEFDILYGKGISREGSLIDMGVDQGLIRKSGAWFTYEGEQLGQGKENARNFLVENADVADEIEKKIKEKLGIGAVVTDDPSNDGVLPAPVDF
Mtb betalactam = beta-lactam sensitization of Mtb H37Rv; M. tuberculosis H37Rv growth with meropenem, percent inhibition; hits of this screen are not shown here; inhibition, % at 25 µM; 0.27% of 330,000 active; AID 434955;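 active means about 74% or more and at least 40 points above the plate without the antibiotic, then above 30% in a dose series; inconclusive means first-round hits that could not be retested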;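 further: growth measured after seven days incubation then overnight dye step; 0% = bacteria only wells and 100% = bacteria with antibiotic; twin plates without the antibiotic show which effects depend on it; some results filed as inactive read as strong as hits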
Arbovirus anti = blocks arbovirus infection; arbovirus infection cell-based antiviral screen; inhibition, % at 10 µM; 0.37% of 200,000 active; AID 1251;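 active means inhibition from about 30%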;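 further: bluetongue infection of BSR cells; cell survival read as ATP light after 72 h; 0% = infected wells without compound and 100% = uninfected wells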
Arbovirus anti repeat = recorded beside Arbovirus anti, whose call it bears; inhibition, %; measured here: 10K subset replicate screen; many hits read low in the repeat;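 first of two repeat runs on a subset; 0% = infected and 100% = uninfected wells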
An asterisk follows results filed as active; ? = inconclusive; . = not tested or not shown. This is a subset; count on the stated rates, not on these rows.

SMILES	YopH PTP inh	Mtb H37Rv	RecA splice inh	Mtb betalactam	Arbovirus anti	others
COc1ccc(C2=NS(=O)(=O)N(C)C(C(=O)N3CCCCC3)=C2)cc1	.	.	-0.2	5	.
COCC(C)NC(=O)NC(=O)c1ccc(Cl)cc1 (stereo unspecified)	1	-4%	-0.9	12	1
CN1CCN(CCCNC(=O)Cn2nc(-c3ccccc3)ccc2=O)CC1	-16	-13%	-0.4	-1	-2
CC1(C)CC(=O)C=C(Nc2ccccc2NC(=O)c2cnccn2)C1	-2	-7%	0.3	-6	7
COc1ccccc1CNC(=O)CCC(=O)N1CCOc2ccc(C)cc21	.	.	0.4	-2	.
COc1ccc(CCc2nnc(CCC(=O)NCC3CCCO3)o2)cc1 (stereo unspecified)	.	.	-2.1	-12	.
C=C(C)Cn1c(SCC#N)nc2ccccc2c1=O	-107	-5%	-7.2	6	0
C=CCNC(=O)c1sc(SC)cc1-c1ccc(Cl)cc1	-7	-6%	0.8	3	-7
CCOC(=O)/C(C#N)=C/c1ccc(OC(=O)c2ccccn2)cc1	-11	-6%	2.0	-3	-6
C=C(C)C(=O)OC1(C(F)(F)F)Oc2cc(C)ccc2NC1=O (stereo unspecified)	-8	-5%	-1.1	?	-41
O=[N+]([O-])c1ccc(O)c(C=Nc2ccc3c(c2)OCCO3)c1	-13	78%	-45	74	-16
Cc1ccc(OCC(=O)Nc2cccc(S(=O)(=O)N3CCCCCC3)c2)c([N+](=O)[O-])n1	.	0%	-3.1	2	5
CCCCCCCCCC(=O)N[C@H](CN1CCOCC1)[C@H](O)c1ccccc1	.	-14%	-0.6	0	.
CCOc1ccc(C(=O)N2CCSC2=S)cc1	-19	-9%	3.0	-5	-1
Cn1cc([N+](=O)[O-])c(C(=O)Nc2ccc3c(c2)OCCO3)n1	0	-15%	-7.9	6	-9

A portion of the results above:
SMILES	YopH PTP inh	Mtb H37Rv	RecA splice inh	Mtb betalactam	Arbovirus anti	others
CCOc1ccc(C(=O)N2CCSC2=S)cc1	-19	-9%	3.0	-5	-1
Cn1cc([N+](=O)[O-])c(C(=O)Nc2ccc3c(c2)OCCO3)n1	0	-15%	-7.9	6	-9

(continued)
SMILES	YopH PTP inh	Mtb H37Rv	RecA splice inh	Mtb betalactam	Arbovirus anti	others
CCOc1ccc(CNc2ccc3c(c2)ncn3C)cc1	-38	.	3.7	24	5
Cc1nc(-c2ccccc2)sc1C(=O)Nc1ccc(S(N)(=O)=O)cc1	.	.	-2.5	?	.
Cc1ccc(S(=O)(=O)N2CCCCC2C(=O)Nc2nncs2)cc1 (stereo unspecified)	.	7%	0.3	-5	.
CCN(CC)CC(O)Cn1c(-c2ccccc2Cl)nc2ccccc21 (stereo unspecified)	.	-2%	-1.4	-6	.
COc1ccc(NC(=O)OC(C)C)cc1	-63	-1%	-3.6	-9	4
Cc1cc(N/C=C/C(=O)c2cccc3ccccc23)no1	-37	-2%	1.5	5	-14
CCc1nc2ccccc2c(C(=O)OCC(=O)Nc2cccc(S(=O)(=O)NC3=NCCCCC3)c2)c1C	.	11%	4.3	76	.
CCc1ccc(N/C(N)=N/c2nc(CSc3ccccn3)cc(=O)[nH]2)cc1	.	9%	0.3	-7	-20
CN(CC(=O)NCc1ccc(F)cc1)Cc1cccc(Cl)c1	.	.	3.0	8	.
COc1ccc(S(=O)(=O)N2CCN(C(=O)NCc3ccccc3)CC2)cc1	-37	-4%	1.0	-4	-1
COCC(=O)Nc1cc([N+](=O)[O-])ccc1C	-39	-7%	-2.2	-3	2
COc1c(N2CCN[C@H](C)C2)c(F)cc2c(=O)c(C(=O)O)cn(C3CC3)c12	.	.	-12	100	.
COc1ccc(NC(=O)COC(=O)CCOc2ccccc2C)cc1Cl	.	.	1.5	-3	.
CCC1(c2ccccc2)NC(=O)N(CC(=O)NNC(=O)c2ccoc2C)C1=O (stereo unspecified)	.	.	1.8	1	.
Cc1ccc(Cl)cc1N1CCN(C(=O)C2CCN(S(=O)(=O)c3c(C)nn(C)c3C)CC2)CC1	0	.	2.5	3	-20

Three structures out of the list, sorted by length of the SMILES, lowest first:
SMILES	YopH PTP inh	Mtb H37Rv	RecA splice inh	Mtb betalactam	Arbovirus anti	others
CCOc1ccc(CNc2ccc3c(c2)ncn3C)cc1	-38	.	3.7	24	5
COc1ccc(NC(=O)COC(=O)CCOc2ccccc2C)cc1Cl	.	.	1.5	-3	.
CCc1nc2ccccc2c(C(=O)OCC(=O)Nc2cccc(S(=O)(=O)NC3=NCCCCC3)c2)c1C	.	11%	4.3	76	.

The listing picks up, starting 5 compounds before the break.
SMILES	YopH PTP inh	Mtb H37Rv	RecA splice inh	Mtb betalactam	Arbovirus anti	others
COCC(=O)Nc1cc([N+](=O)[O-])ccc1C	-39	-7%	-2.2	-3	2
COc1c(N2CCN[C@H](C)C2)c(F)cc2c(=O)c(C(=O)O)cn(C3CC3)c12	.	.	-12	100	.
COc1ccc(NC(=O)COC(=O)CCOc2ccccc2C)cc1Cl	.	.	1.5	-3	.
CCC1(c2ccccc2)NC(=O)N(CC(=O)NNC(=O)c2ccoc2C)C1=O (stereo unspecified)	.	.	1.8	1	.
Cc1ccc(Cl)cc1N1CCN(C(=O)C2CCN(S(=O)(=O)c3c(C)nn(C)c3C)CC2)CC1	0	.	2.5	3	-20
CC(C)C[C@H](NC(=O)c1[nH]cnc1C(=O)N[C@@H](C)C(=O)OC(C)(C)C)C(=O)OCc1ccccc1	.	-9%	-0.4	-7	.
COc1ccc(N2CCN(C(=O)c3cc(-c4ccc(F)cc4)[nH]c3C)CC2)cc1	.	.	-1.8	17	.
Nc1ccccc1-c1nc2ccccc2[nH]1	1	-7%	-37	3	-4
O=C(NC(=S)Nc1ccccc1Br)c1ccc2c(c1)OCO2	.	.	-1.2	3	.
O=C(NCCCNC(=O)c1cc(Cl)ccc1Cl)c1cnccn1	.	.	2.1	1	.
COc1cccc(CN2C(=O)[C@H]3Cc4c([nH]c5ccccc45)C(C)(C)N3C2=O)c1	.	5%	5.0	72	.
Cc1cc2nccc(-c3ccc(Cl)c([N+](=O)[O-])c3)n2n1	.	7%	-5.8	5	4
CCNC(=S)NCCN1CCCCC1	-5	-7%	2.0	-7	4
CCOc1cc(C(=S)N2CCOCC2)ccc1OS(=O)(=O)c1ccccc1	-24	7%	-0.7	-10	-7
O=C(Nc1ccn(-c2ccccc2)n1)c1ccc(S(=O)(=O)N2CCCCCC2)cc1	-38	?	9.1	8	-8
Cc1cc(C)nc(SCCC(=O)N(C)C)n1	-51	-7%	1.7	4	-2
Cc1n[nH]c(C)c1CCCCOc1ccccc1[N+](=O)[O-]	.	.	3.1	-2	.
O=C(CNC(=O)c1ccco1)NCC(=O)OC(C(=O)c1ccccc1)c1ccc(Cl)cc1 (stereo unspecified)	26	-10%	1.8	-3	-4
CNC(=O)NC(=S)NC(=O)c1cccc(Cl)c1	.	8%	1.4	3	11
Cc1cccc(NC(=O)CCNC(=O)c2ccc(Br)cc2)c1C	.	.	1.6	7	.
COc1cc2c(C(=O)N3CCN(C4CCCCC4)CC3)cn(CC(C)C)c(=O)c2cc1OC	-16	-14%	4.1	-4	13
O=C(NCc1ccccc1)C(c1ccc(O)cc1)N(C(=O)Cn1nnc(-c2cccs2)n1)c1ccc2c(c1)OCCO2 (stereo unspecified)	-11	21%	2.3	-3	-11
O=C(COC(=O)C1CCN(S(=O)(=O)c2ccccc2C(F)(F)F)CC1)NCc1ccc(F)cc1	-24	2%	-1.1	1	0
O=C(COc1ccccc1)NCC(c1ccco1)N1CCN(c2ccccc2)CC1 (stereo unspecified)	.	.	4.1	-11	.
CCOC(=O)/C=C(\C)Sc1cc(=O)oc2ccccc12	-1	-9%	15	60	-7
COc1ccc(C(=O)Cn2c(Br)nc3c2c(=O)n(C)c(=O)n3C)cc1OC	-45	-8%	2.3	-7	8
O=C(O)C1C2C=CC(C2)C1C(=O)Nc1cccc(F)c1 (stereo unspecified)	-23	-8%	-4.0	6	3
Nc1nsnc1C(=O)NCCO	-32	2%	-4.4	-2	10
COc1ccc(/C=C2/SC(=S)N(NS(=O)(=O)c3ccc(C)cc3)C2=O)cc1	.	.	11	9	.
O=C(C1CCC1)N1CCN(Cc2ccccc2)CC1	-44	-5%	0.8	-10	2
COc1ccccc1Oc1ccc(Oc2ccccc2OC)cc1	.	3%	0.2	3	1
Cc1cc(C)c(Cn2c(=O)n(CCCC(=O)NCc3ccco3)c(=O)c3ccccc32)c(C)c1	27	-4%	-0.1	-2	.
Nc1nonc1-n1nnc(C(=O)N/N=C/c2cccs2)c1-c1ccc2c(c1)OCO2	.	.	-1.4	-4	.
NC(=O)COC(=O)c1ccccc1Oc1ccccc1	.	2%	.	11	11
Cc1cccc(OCCC(=O)OC(C)C(=O)Nc2ccc(Cl)cn2)c1 (stereo unspecified)	.	.	4.2	3	.

Structural class: the compounds so far containing a CF3 group (2)
SMILES	YopH PTP inh	Mtb H37Rv	RecA splice inh	Mtb betalactam	Arbovirus anti	others
C=C(C)C(=O)OC1(C(F)(F)F)Oc2cc(C)ccc2NC1=O (stereo unspecified)	-8	-5%	-1.1	?	-41
O=C(COC(=O)C1CCN(S(=O)(=O)c2ccccc2C(F)(F)F)CC1)NCc1ccc(F)cc1	-24	2%	-1.1	1	0

The results go on.
SMILES	YopH PTP inh	Mtb H37Rv	RecA splice inh	Mtb betalactam	Arbovirus anti	others
Cc1ccc(NC(=O)CCN2C(=O)C3C4CCC(C4)C3C2=O)cc1Cl (stereo unspecified)	.	.	0.5	?	.
O=C(CSc1nnc2n1CCCN2C(=S)Nc1ccc(Cl)cc1)c1ccccc1	-8	-14%	-5.7	-3	-5
Cc1ccc(-n2cc(CN3CCN(C(=O)c4ncn[nH]4)CC3)c(-c3ccc(F)cc3)n2)cc1	.	48%	-0.1	78	.
Cn1c(O)c(N=Nc2nc(-c3ccccc3)cs2)c2ccccc21	-14	68%	0.7	8	4
Cc1c(NC(=O)c2ccc(-c3ccc([N+](=O)[O-])cc3Cl)o2)c(=O)n(-c2ccccc2)n1C	.	2%	-2.2	3	1
O=C(NCc1cccc(F)c1)C1CCC(=O)N(CC2CCCCC2)C1 (stereo unspecified)	.	.	-1.4	6	.
COc1ccc(NC(=O)C2CCC(=O)N2S(=O)(=O)c2ccc(C)cc2)c(OC)c1 (stereo unspecified)	8	-15%	0.9	9	-1
COc1ccc(/C=C2\CCCC3C2=NN(C(=O)CSc2ncn[nH]2)C3c2ccc(OC)cc2)cc1 (stereo unspecified)	-11	6%	4.6	19	-37
Nc1cc(C(=O)N2CCCC2)cc(C(=O)N2CCCC2)c1	2	-2%	-2.7	-2	2
COc1ccc(CNC(=O)COC(=O)CCc2nc3ccccc3c(=O)[nH]2)cc1	.	5%	5.4	-4	5
CCOC(=O)C1CCN(C(=O)CCS(=O)(=O)Cc2ccccc2)CC1	.	.	0.0	-10	.
COC(=O)c1cn(NC(=O)c2ccc3c(c2)OCO3)c(=O)c2ccccc12	13	1%	1.0	-6	3	Arbovirus anti repeat=-4
CC1CCc2onc(C(=O)NCc3ccco3)c2C1 (stereo unspecified)	.	-1%	-0.5	-5	2
O=C(NNC(=S)NCc1ccco1)C(c1ccccc1)c1ccccc1	.	-4%	-1.0	3	-5
COc1ccc(C(=O)Nc2ccc3c(c2)OCCO3)cc1Br	.	.	-1.6	4	.
CN(C(=O)c1coc(=O)c2ccccc12)c1ccc(F)cc1	-59	.	-3.5	2	6

Bioassay records from PubChem.
